Screening data: PubChem, National Center for Advancing Translational Sciences (NCATS)
Rango dissoc inh: inhibition of RanGTP-driven Rango-importin beta dissociation | O95149+P62826 | Biochemical FRET Rango-importin beta, RanGTP-induced dissociation | Potency, µM (titrated, usually from 46.1 µM), inactives show at the highest dose activity change, negative = inhibition | actives 0.071% (n = 340,000) | AID 540253; active means falling FRET ratio curve, often poorly fitted, with flat reads before Ran was added; inconclusive means other falling curves, or compound fluorescence or quenching; inactive means flat or rising ratio curve;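 further: potency means the concentration at half of the fitted maximal effect; % of control where 0% means no effect; nearly all actives have a fitted effect of over 45% in size; -100% = wells without RanGTP and RCC1; the record marks most hits as doubtful in a second field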
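Compounds preincubate 5 min with complex of recombinant Rango and importin beta in PBS with 1 mM DTT. Ran (0.6 uM) loaded with 2 mM GTP plus 0.2 uM RCC1 starts dissociation; FRET is recorded 45 min later.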
GLA inh pH 4.5: alpha-galactosidase A (human) inhibition, pH 4.5 | activity change, negative = inhibition, % at 105 µM | P06280 | AID 1467 | 230,000 tested, under 10 active | purified enzyme, 4-MU-alpha-Gal fluorescence, pH 4.5; inconclusive = small, poorly fitted or top-dose-only inhibition, or a rising curve; inactive = flat fitted curve, though single readings scatter; no compound was filed as active;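 further: 0% = full activity with enzyme and -100% = basal without enzyme; dose as in the result columns while the protocol names 77 µM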
miR-21 FLuc: miR-21 reporter, rising signal | HeLa miR-21 FLuc reporter, luciferase, 48 h | Potency, µM (series often up to 38.3 µM), for inactives: top-dose reporter change, positive = more light | 340,000 tested, under 10 active; active = well fitted rising curve with a large enough effect; inconclusive = small, poorly fitted or top-dose-only effect; inactive = no such curve, though single readings can be large or run the other way;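 further: % of control where 0% means no effect; miR-21 action dims this reporter so a rising signal means less miR-21 action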
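HeLa cells stably expressing CMV-driven firefly luciferase with a downstream miR-21 binding sequence, endogenously expressing miR-21, were treated with titrations (up to about 40uM final) for 48 hours at 37 degree Celsius. Luciferase luminescence was read after lysis.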
Rango complex inh: inhibitors of Rango-importin beta complex formation; Rango CFP/YFP FRET sensor + importin beta, 45 min; Potency, µM (titrated, usually from 92.2 µM), inactives show at the highest dose inhibition of complex formation; actives 0.031% (n = 340,000); active = rising FRET ratio curve, often small or poorly fitted; inconclusive = mostly compound fluorescence or quenching in the first reads; inactive = flat curves in all reads;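 further: potency means the concentration at half of the fitted maximal effect; 0% = DMSO wells and 100% = buffer wells lacking importin beta; nearly all actives have a fitted effect of over 15% in size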
Target sequence (Q14974 whole entry, looked up): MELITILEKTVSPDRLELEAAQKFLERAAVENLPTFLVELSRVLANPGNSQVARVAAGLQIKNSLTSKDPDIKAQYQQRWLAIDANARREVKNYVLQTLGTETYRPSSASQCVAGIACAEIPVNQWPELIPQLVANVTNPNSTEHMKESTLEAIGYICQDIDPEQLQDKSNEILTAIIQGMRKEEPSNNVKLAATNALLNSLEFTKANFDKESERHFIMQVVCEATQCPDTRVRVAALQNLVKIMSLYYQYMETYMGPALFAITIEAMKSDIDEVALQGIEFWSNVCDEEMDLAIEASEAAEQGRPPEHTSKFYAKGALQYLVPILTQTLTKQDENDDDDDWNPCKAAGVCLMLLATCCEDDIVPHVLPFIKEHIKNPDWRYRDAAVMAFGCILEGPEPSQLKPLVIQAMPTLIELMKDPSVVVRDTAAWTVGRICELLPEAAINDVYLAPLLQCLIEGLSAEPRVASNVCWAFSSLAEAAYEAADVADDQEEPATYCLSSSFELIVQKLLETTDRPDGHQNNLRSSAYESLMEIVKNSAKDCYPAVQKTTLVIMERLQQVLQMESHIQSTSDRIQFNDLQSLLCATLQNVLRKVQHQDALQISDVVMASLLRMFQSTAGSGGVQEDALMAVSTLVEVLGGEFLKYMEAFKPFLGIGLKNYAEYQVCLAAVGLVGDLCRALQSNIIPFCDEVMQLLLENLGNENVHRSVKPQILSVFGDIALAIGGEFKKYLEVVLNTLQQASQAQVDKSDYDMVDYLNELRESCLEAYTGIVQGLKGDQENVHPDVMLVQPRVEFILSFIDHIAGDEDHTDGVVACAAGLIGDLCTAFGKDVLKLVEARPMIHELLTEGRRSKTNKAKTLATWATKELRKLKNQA
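FRET biosensor (snurportin 1 IBB flanked by EYFP and cerulean), 50 nM, with compound 5 min, then 0.125 microM importin beta in PBS, 1 mM DTT, 0.02% Tween-20, 0.1% BSA. CFP/YFP ratio read after 45 min at room temperature; pre-read flags interference.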
An asterisk follows results filed as active; ? = inconclusive; . = not tested or not shown; & = joins results of further samples; [ ] = another dose, or the depositor's remark.

Rango dissoc inh	GLA inh pH 4.5	miR-21 FLuc	Rango complex inh	canonical_smiles
0%	8	-5%	0.3%	Cc1ccc(S(=O)(=O)NC2OC(=O)C(Cl)=C2Cl)cc1 (stereo not given)
30%	?	1%	1.2%	CSc1nc2n(n1)C(c1ccccn1)C1=C(CC(C)(C)CC1=O)N2 (stereo not given)
2%	.	.	-0.1%	Cc1ccc(NC2=C(Cl)C(=O)OC2OC(=O)c2ccco2)c(C)c1 (stereo not given)
6%	3	-4%	-0.3%	Cc1cc(NC(=O)CSc2ncn(-c3ccccc3)n2)no1
-8%	-1	2%	-0.4%	COc1ccc(C(=O)NNC(=O)CSc2nnc(-c3ccc(O)cc3)n2C)cc1
3%	2	1%	1.2%	Cc1cc2ccccc2cc(C)c1=O
21%	.	-11%	-2.2%	O=C(CSc1nc2ccccc2c(=O)n1Cc1ccccc1)Nc1ccc(Br)cc1C(=O)O
1%	0	-23%	-0.4%	COc1ccc(C(=O)NCC2CCCO2)cc1 (stereo not given)
-8%	5	1%	1.2%	CCCS(=O)(=O)c1c(S(=O)(=O)CCC)c2c(C)cccn2c1C(N)=O
-8%	-1	1%	3.4%	O=C(NCc1ccc2c(c1)OCO2)c1cc(-c2ccc(Cl)cc2Cl)on1

Following part.
Rango dissoc inh	GLA inh pH 4.5	miR-21 FLuc	Rango complex inh	canonical_smiles
5%	.	0%	0.1%	Cc1cc(=O)oc2cc(OCC(=O)N3CCN(c4ccccc4)CC3)c(Cl)cc12
-19%	-4	0%	-4.2%	Cc1ccc(-c2[nH]c3ccccc3c2SCCNC(=O)c2cc3ccccc3oc2=O)cc1
-14%	.	0%	-0.8%	C=CCNc1nc2c(c(=O)[nH]c(=O)n2C)n1CC(O)COc1ccc2ccccc2c1 (stereo not given)
-6%	-15	-52%	-1.2%	O=C(CSC(=S)N1CCCCC1)c1c(F)cccc1F
3%	-6	8%	-0.4%	CCOCCCNC(=O)c1ccc(N(C)S(=O)(=O)c2ccc(OC)cc2)cc1
2%	.	.	-1.9%	O=C(CSc1n[nH]c(-c2ccc(Br)cc2)n1)NC1CCCC1
-17%	-21	2%	-3.8%	Cc1cccc(CSCCNC(=O)CN(c2cc(C)cc(C)c2)S(C)(=O)=O)c1
-7%	.	0%	-2.2%	COc1ccc(NC(=O)CC2(CC(=O)O)CCCC2)cc1
0%	6	0%	-5.6%	CCOn1c(-n2nc(C)cc2C)nc2ccccc2c1=O
.	-1&4&5	0%	.	COc1cc(NS(=O)(=O)c2ccc(N)cc2)ncn1

Following part:
Rango dissoc inh	GLA inh pH 4.5	miR-21 FLuc	Rango complex inh	canonical_smiles
2%	-10	-19%	-1.8%	Cc1cc(NC(=O)C(=O)c2c(C)[nH]c3ccccc23)no1
0%	.	-4%	-1.4%	O=C(O)C1CCCN1S(=O)(=O)c1ccc(F)cc1 (stereo not given)
10%	-5	-2%	0.7%	Cc1onc(-c2c(F)cccc2Cl)c1C(=O)N1CCN(S(C)(=O)=O)CC1
2%	-10	-1%	-1.3%	CC(C)CN1CCC(C(=O)N2CCN(c3ccccc3F)CC2)CC1
3%	.	0%	-1.6%	COc1cc(C(C)=O)ccc1OCC(=O)OCCCOC(=O)COc1ccc(C(C)=O)cc1OC
10%	.	.	3.4%	CN(CC(=O)Nc1cccc(F)c1)C(=O)c1ccc(C2SCCS2)cc1
10%	6	4%	-4.1%	O=c1[nH]c2c(s1)C(c1ccc(O)cc1)C1C3CCC(C3)C1S2 (stereo not given)
-18%	5	1%	?	Cc1ccc(-c2cc(C(=O)NCc3ccco3)c3ccccc3n2)o1
13%	-8	-42%	-0.6%	CC(C)=N/N=C1\NC(=O)C(C)S1 (stereo not given)
-1%	9	1%	-2.0%	Cc1ccc(-c2c(C#N)c(N)n(-c3ccc(C)cc3)c(=O)c2C#N)cc1

The list goes on:
Rango dissoc inh	GLA inh pH 4.5	miR-21 FLuc	Rango complex inh	canonical_smiles
?	0	-4%	?	N=C1/C(=C\c2ccc(-c3cccc(Cl)c3)o2)C(=O)N=C2SC=C(c3ccccc3)N12
-2%	-4	-7%	-2.7%	COc1ccccc1CNC(=O)CCSCc1cccc(Cl)c1
-9%	.	.	6.3%	[O-]/[N+](=C\c1ccccc1)c1ccc(Br)cc1
15%	4	1%	-0.8%	COC(=O)C(Cc1ccccc1)NC(=O)CSc1nc(C)cc(=O)[nH]1 (stereo not given)
-5%	-9	2%	-3.3%	COc1ccc(C(CNC(=O)c2ccc(S(=O)(=O)N3CCOCC3)cc2)N2CCCCC2)cc1 (stereo not given)
-5%	1	4%	-1.9%	Cn1nnnc1SCCNCc1ccccc1OCc1ccccc1Cl
14%	0	2%	-4.6%	C/C=C\C=C\C(=O)N1CC2(CC(c3cccc(NC(=O)COc4ccc(Cl)cc4)c3)=NO2)C[C@H]1C(N)=O (stereo not given in full)
-9%	0	-9%	-0.7%	COc1ccc(N2CCN(C(=O)CCc3ccc(S(=O)(=O)NC(C)C)cc3)CC2)cc1
0%	.	2%	-1.5%	Cc1ccc(S(=O)(=O)N2CCCC2)cc1C(=O)N1CCC(C)CC1
22%	.	-9%	?	CC(=O)c1ccc(Nc2nc3ccc(C)cc3n3cnnc23)cc1

(next part)
Rango dissoc inh	GLA inh pH 4.5	miR-21 FLuc	Rango complex inh	canonical_smiles
15%	5	-5%	2.2%	CCOC(=O)N1CCN(Cc2nc(N)nc(Nc3ccccc3C)n2)CC1
-18%	-7	-44%	?	Cc1ccc(NC(=O)c2cccc(S(C)(=O)=O)c2)cc1
0%	.	-1%	-1.8%	CC1CCN(C(=O)CN2C(=O)C(C)(C)Oc3ccc(C(=O)NC(C)C)cc32)CC1
?	-26	-6%	?	Cc1cc(C)nc(NN2C(=O)/C(=C/c3ccc(O)cc3)SC2=S)n1
1%	10	-9%	-0.4%	CCOC(=O)C(NC(C)=O)(OCc1ccccc1)C(F)(F)F (stereo not given)
4%	.	25%	3.2%	COc1ccc(C(=O)NNC(=S)NC(=O)c2cccs2)cc1
2%	.	.	-0.2%	CSCCC(NC(=O)COc1ccccc1)C(=O)N(C)CC(=O)Nc1c(C)cccc1C (stereo not given)
0%	-3	-3%	0.8%	O=C(CC12CC3CC(CC(Br)(C3)C1)C2)OCCN1CCCCC1
5%	1	-11%	0.1%	C=C1C(C(=O)Nc2ccc(F)cc2)C1C(=O)Nc1ccc(F)cc1 (stereo not given)
-2%	16	3%	-1.3%	O=C1CC(c2ccco2)CC2=C1C(c1ccccc1)n1nc(C(F)(F)F)nc1N2 (stereo not given)

(further entries)
Rango dissoc inh	GLA inh pH 4.5	miR-21 FLuc	Rango complex inh	canonical_smiles
-4%	0	5%	1.8%	CCOC(=O)Cc1csc(N)n1
1%	-1	1%	-0.6%	COc1cccc(NS(=O)(=O)c2ccc3[nH]cc(C(=O)NC4CC4)c(=O)c3c2)c1
-2%	.	0%	-2.5%	CCOc1cc(/C=C(\C#N)C(=O)Nc2ccc(S(N)(=O)=O)cc2)ccc1OCCN1CCOCC1
-11%	-6	-2%	2.7%	COCCCNS(=O)(=O)c1ccc2[nH]c(=O)[nH]c2c1
-4%	.	.	5.3%	O=C(CSc1nccc2ccccc12)N1CCN(Cc2ccc3c(c2)OCO3)CC1
2%	.	-9%	0.3%	CCCCOC(=O)C1=C(C)NC(=O)NC1c1ccc(OC)cc1 (stereo not given)
0%	.	.	0.0%	O=C(COC(=O)COc1ccccc1)Nc1ncc(Cl)cc1Cl
1%	2	10%	?	CCCC1=[N+](CC(=O)c2ccccc2)CCn2c(C)ccc21
24%	0	-21%	2.1%	CN1CCN(C(=S)Nc2cc([N+](=O)[O-])ccc2Cl)CC1
-12%	.	1%	0.5%	CN(CC(=O)Nc1ccc(F)c(F)c1F)C(=O)Cc1ccc2c(c1)OCCO2

The list continues:
Rango dissoc inh	GLA inh pH 4.5	miR-21 FLuc	Rango complex inh	canonical_smiles
16%	.	-2%	1.7%	CCCCc1nnc(NC(=O)CCc2ccccc2)s1
2%	1	-1%	-1.0%	CC(=O)Nc1ccc(NC(=O)Cc2sc(C)nc2-c2ccc(C)cc2)cc1
11%	-10	?	0.1%	Cc1ccc(-n2nnnc2C(Cl)c2nnnn2-c2ccc(C)cc2)cc1
-17%	.	-3%	-0.5%	Cc1c(C)n(C)c2ccc(C(=O)NCCCN3CCN(C)CC3)cc12
18%	5	-1%	4.3%	Cc1ccc(NC(=O)CC2C(=O)N(Cc3ccccc3)C(=S)N2NC(=O)c2ccccc2)c(C)c1 (stereo not given)
-5%	-10	20%	-0.3%	COc1cc(NS(=O)(=O)c2ccc(OC)c(C)c2C)c(OC)cc1Cl
8%	.	-21%	-3.3%	CC(=O)c1ccc(Nc2nc(N3CCOCC3)nc(N3CCOCC3)n2)cc1
-1%	.	.	0.1%	Cc1cccc(-c2nnc(-c3ccc4ccccc4c3)o2)c1
10%	-13	0%	-0.7%	O=C(c1ccc(N2C(=O)CCC2=O)cc1)N1CCOCC1
-11%	2[21.1 µM]	28%	?	CC(=O)/C=C1/C(=O)Nc2ccccc21

(list continues)
Rango dissoc inh	GLA inh pH 4.5	miR-21 FLuc	Rango complex inh	canonical_smiles
-3%	.	.	-2.1%	Cc1sc2ccccc2c1CNC[C@H]1O[C@@H](n2cnc3c(N)ncnc32)[C@H](O)[C@@H]1O
.	?	-9%	.	Cc1cccc(-n2c3nc(=O)[nH]c(=O)c-3cc3c(C)nn(-c4ccccc4)c32)c1
4%	.	.	-1.7%	CC(=O)OC1CCC2C3CCC4OC(=O)CCC4C3CCC12C (stereo not given)
-6%	9	-1%	0.6%	COc1ccc(-c2noc(C3CCCN(C(=O)Nc4ccccc4)C3)n2)cc1 (stereo not given)
8%	1	4%	-4.1%	O=C(CSc1ccc(-c2cccc([N+](=O)[O-])c2)nn1)NCc1ccccc1
-8%	.	-53%	-2.2%	Cc1ccccc1NC(=O)Nc1ccc2c(c1)CCC2
-10%	3	-18%	?	CCOC(=O)NC(=O)/C(N=Nc1cccc(C(F)(F)F)c1)=C(\C)O
-8%	-26&5	-39%	0.7%	Nc1ccc(N=Nc2ccccc2)c(N)n1
12%	.	.	3.4%	COc1cc2c(cc1OC)CN(C1CCC(C(C)(C)C)CC1)CC2 (stereo not given)
10%	.	.	-0.6%	Cc1cc(C(=O)N2CCN(c3ncccn3)CC2)sc1-c1ccccc1

Next entries.
Rango dissoc inh	GLA inh pH 4.5	miR-21 FLuc	Rango complex inh	canonical_smiles
-9%	.	5%	0.8%	CCOC(=O)c1ccc(Oc2cn[nH]c2-c2ccc(OCC(=O)NN)cc2O)cc1
-2%	.	9%	-4.0%	CCS(=O)(=O)c1nc(S(=O)(=O)c2ccc(Cl)cc2)c(N2CCN(CCO)CC2)s1
-2%	.	14%	0.9%	C[C@@H]1CN(C(=O)c2cc(COc3cccc(C(F)(F)F)c3)on2)C[C@H](C)O1
1%	4	25%	-3.6%	Cn1c(=O)c2[nH]c(N3CCN(c4cccc(O)c4)CC3)nc2n(C)c1=O
?	.	.	?	O=C(COC(=O)c1ccccc1OC(F)F)Nc1ccc2[nH]c(=O)[nH]c2c1
0%	-2	-3%	-3.4%	CCOC(=O)c1ccc(NC(=O)Cn2nnc(-c3ccccc3F)n2)cc1
7%	.	-1%	0.1%	O=C(Cn1c(NCCO)nc2ccccc21)c1ccc(F)cc1
-5%	0	2%	-3.4%	CN(Cc1ccco1)C(=O)Cn1c(=O)oc2cc(S(=O)(=O)NCc3ccccc3)ccc21
16%	3	19%	-1.5%	CCOc1cccc(-n2nnnc2-c2ccc(OC)cc2)c1
-13%	.	0%	-4.0%	CCOc1ccccc1NS(=O)(=O)c1ccc(-n2cccn2)cc1
0%	-4	-2%	0.4%	CC1=C(C(=O)OC(C)C)C(c2ccsc2)NC(=O)N1C (stereo not given)

Among those listed so far, four have bromine.
Rango dissoc inh	GLA inh pH 4.5	miR-21 FLuc	Rango complex inh	canonical_smiles
21%	.	-11%	-2.2%	O=C(CSc1nc2ccccc2c(=O)n1Cc1ccccc1)Nc1ccc(Br)cc1C(=O)O
2%	.	.	-1.9%	O=C(CSc1n[nH]c(-c2ccc(Br)cc2)n1)NC1CCCC1
-9%	.	.	6.3%	[O-]/[N+](=C\c1ccccc1)c1ccc(Br)cc1
0%	-3	-3%	0.8%	O=C(CC12CC3CC(CC(Br)(C3)C1)C2)OCCN1CCCCC1

Some of the compounds tested, so the mix of outcomes need not match the whole.
